Assay outcomes as filed in PubChem BioAssay.
Ecoli growth – blocks Escherichia coli growth. 0.21% of 330,000 active. OD600, 23 h; hits give low values. OD600 absorbance (concentration not given with the values);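 active = OD600 absorbance below the run mean of sample wells minus 3.6 SD, in any replicate, cut at about 0.56 in these data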;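 note: stock transfer was 300 nL into about 60 µL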
RanGTP-Imp inh – inhibitors of RanGTP-importin-beta interaction, primary screen, biochemical, FRET, CFP-Ran, YFP-importin-beta, homogeneous | cell-free CFP-Ran/YFP-importin-beta FRET ratio | inhibition, % (no concentration beside the values) | 1.1% of 300,000 active;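 active = most replicates above 15%; inconclusive = exactly half above 15%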;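 note: 0% = DMSO wells and 100% = Ran loaded with GDP instead of GTP; wells of about 40 µL received 100 nL stock; the first replicate is given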
AF4-AF9 inh – MLL-AF4/AF9 protein interaction inhibition | AlphaScreen, biotin-AF4 peptide binding to FLAG-AF9 | P42568 | 0.47% of 350,000 active | inhibition, % at 10 µM | AID 651704;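 active = every replicate reaching a set inhibition limit, whatever the replicate mean, cut at about 25% in these data; inconclusive = mean inhibition reaches that limit but some replicates miss it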;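 note: 0% = plate neutral control median and 100% = total signal loss; the record names both 10 and 1 µM as test concentration; the first replicate is given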
Target sequence (P42568 whole entry, looked up): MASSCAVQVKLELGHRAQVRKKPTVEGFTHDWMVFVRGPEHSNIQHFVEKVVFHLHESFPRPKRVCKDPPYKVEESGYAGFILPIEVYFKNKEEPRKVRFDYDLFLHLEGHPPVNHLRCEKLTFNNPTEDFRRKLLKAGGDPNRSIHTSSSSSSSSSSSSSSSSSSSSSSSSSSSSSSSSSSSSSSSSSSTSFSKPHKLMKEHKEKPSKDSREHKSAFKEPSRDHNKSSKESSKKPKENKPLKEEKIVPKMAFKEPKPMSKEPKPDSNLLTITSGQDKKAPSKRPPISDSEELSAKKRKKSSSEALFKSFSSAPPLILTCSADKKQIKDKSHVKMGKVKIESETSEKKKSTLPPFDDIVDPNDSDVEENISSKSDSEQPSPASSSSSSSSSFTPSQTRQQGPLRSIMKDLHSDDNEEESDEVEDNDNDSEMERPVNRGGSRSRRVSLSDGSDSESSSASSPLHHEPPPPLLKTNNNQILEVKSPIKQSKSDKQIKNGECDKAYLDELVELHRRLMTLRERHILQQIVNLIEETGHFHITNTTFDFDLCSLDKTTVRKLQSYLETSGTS
HNF4A DNA FP – change in binding of human HNF4 alpha to DNA; activity change, % at 10 µM; HNF4a-FITC DNA binding, fluorescence polarization, 1 h; AID 1224865; 0.3% of 360,000 active; in the data active = activity change above about 30%, passing the limit was not always enough;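 note: controls were the assay level and a saturating level of protein; the project sought stronger binding though the title names inhibitors; some compounds called inactive have numbers as strong as hits; positive values seem to mean higher polarization but the record does not say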
FGF22 binding – FGF22 (human) thermal shift binding | calls only at 9.99 µM | 1.5% of 340,000 active | recombinant FGF22 thermal shift, SYPRO orange fluorescence; percent of sucrose octasulfate shift, DMSO zero | Q9HCT0;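 active = melting point raised past a set limit in the mean and every replicate; inconclusive = no clear call; three in four hits are not shown here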
Target sequence (Q9HCT0 whole entry, looked up): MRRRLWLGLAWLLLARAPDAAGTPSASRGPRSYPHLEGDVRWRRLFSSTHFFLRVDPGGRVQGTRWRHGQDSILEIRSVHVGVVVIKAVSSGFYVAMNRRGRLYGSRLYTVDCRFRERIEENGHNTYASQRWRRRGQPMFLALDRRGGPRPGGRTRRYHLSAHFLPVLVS
Vif A3G – HIV-1 Vif–A3G interaction blockers – biochemical, TR-FRET, GST-Vif 1-94, biotin-A3G peptide, dose response retest, primary screen (AID 1117319) | inhibition, %, or IC50 in µM where a hit was titrated | 0.57% of 260,000 active | TR-FRET GST-Vif / biotin-A3G peptide binding; higher % means a stronger effect; test concentration not given here; strong numbers were not always called active;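 active = above the screen mean plus three standard deviations and confirmed in dose response; inconclusive = results disagree or hit not tested in dose response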;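 note: Vif residues 1-94 fused to GST binding biotinylated APOBEC3G peptide 110-148; 0% = full assay without inhibitor and 100% = GST in place of GST-Vif; retest series ran down from 100 µM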
UCH37 inh – blocks the human deubiquitinase UCH37 | inhibition, % (test concentration not listed) | 0.33% of 330,000 active | Q9Y5K5 | purified proteasome/UCH37, Ub-AMC cleavage fluorescence;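 active = mean of two replicates above 20%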;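 note: 0% = compound-free wells with enzyme and 100% = wells lacking proteasome; stock transfer was 100 nL into about 20 µL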
Target sequence (Q9Y5K5 whole entry, looked up): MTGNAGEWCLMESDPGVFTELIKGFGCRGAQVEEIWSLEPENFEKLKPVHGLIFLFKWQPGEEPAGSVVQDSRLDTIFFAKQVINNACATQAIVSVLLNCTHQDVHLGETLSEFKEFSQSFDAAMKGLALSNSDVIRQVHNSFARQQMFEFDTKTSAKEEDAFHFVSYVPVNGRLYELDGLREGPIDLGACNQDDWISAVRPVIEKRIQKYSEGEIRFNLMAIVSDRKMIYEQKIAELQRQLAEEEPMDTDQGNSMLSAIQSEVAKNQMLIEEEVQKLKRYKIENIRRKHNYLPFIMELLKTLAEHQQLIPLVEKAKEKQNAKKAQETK
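Schedule: 30 min plus 25 min, room temperature / Material: human UCH37 within purified proteasomes / Technique: AMC fluorescence intensity at 355/460 nm / Buffer or medium: pH 7.4 Tris-HCl (50 mM) with ovalbumin, ATP-MgCl2, DTT / Controls: wells without proteasome as full block, compound-free enzyme plus substrate as uninhibited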
Active calls of the source: *; i = inactive; ? = inconclusive; . = not tested or not shown; & = joins results of further samples. This is a subset, so the mix of outcomes need not match the whole.

Ecoli growth	RanGTP-Imp inh	AF4-AF9 inh	HNF4A DNA FP	FGF22 binding	Vif A3G	UCH37 inh	structure
0.69	-0.9	.	-2.4	.	-9%	-13	CCc1cc2c(NCC3CCCO3)nc(C)nc2s1 (stereo not given)
.	-2.8	.	1.0	.	-53%	.	O=C(CCS(=O)(=O)c1ccccc1)Nc1ccc(-c2nc3ccccc3s2)c(O)c1
0.7	1.1	0.8	-0.6	i	3%	0.9	CCN(C(=O)CCS(=O)(=O)c1cccc2nonc12)c1ccc(C)c(C)c1
0.68	2.6	.	-1.9	.	0%	5.7	CCOC(=O)C1=C(c2ccccc2)Nc2c(c(=O)n(C)c(=O)n2C)C1c1ccc(O)c(OC)c1 (stereo not given)
.	.	0.9	2.3	i	-9%	.	Cc1cc(CCNC=O)c(C)c2c1sc1ccccc12
0.69	-2.2	-2.6	-3.6	i	.	0.3	COc1ccc(OC)c(C(=O)NC(CC(N)=O)c2ccc(N3CCC(N4CCCCC4)CC3)c([N+](=O)[O-])c2)c1 (stereo not given)
0.68	0.2	-2.4	1.4	i	.	0.1	COCC(=O)N1CCC(Oc2ccc(C(=O)N3CCCCC3COC)cc2)CC1 (stereo not given)
0.65	-2.8	7.3	-0.2	i	.	0.2	Cc1ccc([N+](=O)[O-])cc1NC(=S)NCCc1ccccc1
0.67	-1.1	-4.0	-1.5	i	0%	5.2	Cc1ccc(S(=O)(=O)N2CCC(C(=O)OCC(=O)N3CC(C)CC(C)C3)CC2)cc1C (stereo not given)
0.63	4.8	-1.5	0.0	i	5%	1.8	COc1ccc(CNC(=O)C(c2ccco2)N(C(=O)Cc2cccs2)c2cccnc2)cc1 (stereo not given)
0.68	?	0.8	1.2	i	.	2.3	O=C(CN1CCC(NC(=O)c2cccc(F)c2)CC1)NCc1cccs1
0.7	7.1	.	-1.8	.	.	-2.0	CCc1ccc(NC(=O)CSc2n[nH]c(C)c2[N+](=O)[O-])cc1
.	4.4	0.4	-0.8	i	0%	.	O=C(Oc1c(-c2ccccc2Cl)oc2ccccc2c1=O)c1ccc(Cl)cc1
0.59	9.8	0.9	-0.2	i	-1%	0.3	COc1ccc(CCN(/C=C2\Sc3ccccc3C2=O)C(C)=O)cc1OC
0.71	-0.1	3.3	4.2	i	.	1.5	CN1CCN(S(=O)(=O)c2ccc(NS(=O)(=O)c3ccccc3)cc2)CC1
0.65	-2.7	-0.7	-0.5	i	-3%	0.4	CCNc1nc(NCC)nc(NS(=O)(=O)c2ccc(N)cc2)n1
0.68	-0.7	.	-0.7	.	-3%	3.7	Cc1ccc(SC(=O)COc2ccccc2C)cc1
0.7	?	-10	7.2	i	.	3.8	Cc1cccc(N2CCN(S(=O)(=O)c3cc4c(cc3Cl)NC(=O)CO4)CC2)c1C
0.69	-5.4	.	-2.6	.	-8%	5.0	N=c1c2c3c(sc2ncn1N)CCCCC3
0.69	-4.8	-7.6	-1.3	i	-12%	8.1	CC(=O)Cc1nsc(NC(=O)c2ccc(-c3cc(Cl)ccc3Cl)o2)n1
0.73	-3.5	-4.1	4.0	i	4%	4.3	Cn1cc(S(=O)(=O)N2CCN(C(=O)c3ccco3)CC2)c(=O)n(C)c1=O
0.65	0.6	0.6	3.7	i	3%	3.4	C=CCN(CC=C)S(=O)(=O)c1ccc(NC(=S)NC(=O)C2CC2)cc1
.	.	0.8	0.5	i	.	.	CC1OC(CCc2cccc(Cl)c2)Cc2[nH][nH]c(=O)c21 (stereo not given)
0.76	-0.6	-0.3	2.8	i	-5%	-1.0	CCOC(=O)N1CCC(NC(=O)c2cc3c(=O)n(C)c4ccccc4c3n2C)CC1
0.64	1.4	0.7	-0.8	i	-5%	0.6	COc1cc(NC(=O)c2ccccc2)c(C)cc1NC(=O)CC(CC(=O)O)c1ccccc1 (stereo not given)
0.7	1.1	.	-1.4	.	-2%	4.1	COc1ccc(C(=O)N2CCCCC2)cc1S(=O)(=O)Nc1ccccc1
0.65	-0.6	1.0	-1.3	i	.	-2.7	O=C(Nc1ccc2c(c1)OCCO2)C(=O)NC1CC1
0.76	-7.0	-1.8	-1.0	i	12%	3.1	O=C(O)CCC(=O)N1N=C(c2ccc(Br)cc2)CC1c1cccs1 (stereo not given)
0.64	9.4	-3.5	-0.5	i	-5%	2.8	CCOC(=O)c1sc2c(c1C)c(=O)n(CCO)c(=O)n2Cc1ccccc1
.	.	-3.6	-0.7	i	10%	.	O=C(COC(=O)c1cc(=O)c2ccccc2o1)NCc1ccc(Cl)cc1

Looked up by compound from the entries so far, 4 records:
Ecoli growth	RanGTP-Imp inh	AF4-AF9 inh	HNF4A DNA FP	FGF22 binding	Vif A3G	UCH37 inh	structure
.	.	0.9	2.3	i	-9%	.	Cc1cc(CCNC=O)c(C)c2c1sc1ccccc12
0.67	-1.1	-4.0	-1.5	i	0%	5.2	Cc1ccc(S(=O)(=O)N2CCC(C(=O)OCC(=O)N3CC(C)CC(C)C3)CC2)cc1C (stereo not given)
0.64	9.4	-3.5	-0.5	i	-5%	2.8	CCOC(=O)c1sc2c(c1C)c(=O)n(CCO)c(=O)n2Cc1ccccc1
0.76	-7.0	-1.8	-1.0	i	12%	3.1	O=C(O)CCC(=O)N1N=C(c2ccc(Br)cc2)CC1c1cccs1 (stereo not given)

Next part
Ecoli growth	RanGTP-Imp inh	AF4-AF9 inh	HNF4A DNA FP	FGF22 binding	Vif A3G	UCH37 inh	structure
0.65	1.8	-1.6	-0.1	i	3%	2.2	CCCCCCC(=O)N1CCCC(c2nc(-c3cccc(OC)c3)no2)C1 (stereo not given)
0.69	-1.1	2.1	-1.8	i	.	4.2	CCOC(=O)c1c(C)n(C)c2cc(Br)c(OC)cc12
0.7	3.1	.	0.3	.	.	5.2	CCCN1CCN(C2CCCCC2NS(=O)(=O)c2ccccc2)CC1 (stereo not given)
.	.	-5.1	2.6	i	.	.	OC(c1ccc(F)c(F)c1)c1nc(-c2ccc(Cl)cc2)cs1 (stereo not given)
0.74	-0.5	.	-1.7	.	-1%	-9.3	CSc1ccc(Cl)c(C(=O)OCC(=O)N2CC(C)OC(C)C2)c1 (stereo not given)
0.67	1.1	-1.9	0.1	i	.	-9.3	O=S(=O)(Nc1nc2ccccc2nc1Cl)c1cccc(C(F)(F)F)c1
0.73	1.6	.	-0.1	.	.	-0.2	Cc1nc(Nc2ccccc2)sc1-c1ccccc1
0.76	0.2	.	-0.7	.	0%	6.9	CSc1nc2[nH]c3c(c2c2ncnn12)CCCC3
0.76	0.5	-2.3	0.4	i	.	2.9	Cc1ccc(S(=O)(=O)N[C@@H](CC(C)C)C(=O)N2CCC(C(=O)N[C@H](C(=O)O)C(C)C)CC2)cc1
0.7	9.1	.	3.7	.	7%	3.3	O=C(COC(=O)c1cccc(S(=O)(=O)NCc2ccccc2)c1)c1ccccc1
0.68	22*	-6.2	-0.8	i	0%	-7.9	CCOc1cc(C2C3=C(CCCC3=O)Nc3ccc4ncccc4c32)ccc1O (stereo not given)
0.77	2.0	.	0.8	.	1%	-24	CCc1nc(NC2CCCCC2)c(C#N)c2c1COC(C)(C)C2
.	.	1.7	7.5	i	.	.	CCCc1nc2c3ccccc3ccn2c1Cc1ccc(C)cc1
0.61	6.7	1.3	-2.1	i	.	0.1	Cc1c(C(=O)N2CCCC2)oc2c1-c1nn(CC(=O)NCCCN3CCCCC3)cc1CC2
0.7	-0.9	-0.9	0.1	i	.	2.0	CCN1CCN(CC(=O)Nc2ccc(OC(F)(F)F)cc2)CC1
0.71	-1.8	-1.9	5.5	i	6%	5.8	CC(C)C(Nc1ccc(S(=O)(=O)N2CCOCC2)cc1[N+](=O)[O-])C(=O)O (stereo not given)
.	.	1.8	13	i	-1%	.	COc1ccc(C=C2SC(=S)NC2=O)c(OC)c1OC
0.69	-0.1	.	-1.8	.	0%	-1.2	O=C(CCSCCC(=O)NCc1ccccc1)NCc1ccccc1
0.71	.	-2.0	6.4	i	.	1.5	CC1CCC2(CC1)NC(=O)N(CC(=O)c1ccc(CNC(=O)C(C)(C)C)s1)C2=O (stereo not given)
0.69	1.5	-18	-3.2	i	0%	2.3	O=C(NCC1CCCO1)c1onc(CSc2ccccc2)c1C(=O)O (stereo not given)
0.7	3.9	.	0.2	.	-12%	-3.0	COc1ccc(CCNc2oc(Cc3ccccc3)nc2C#N)cc1OC
0.68	-3.6	-1.1	0.2	i	2%	-239	COc1cccc(C2Nc3ccccc3C(=O)N2c2ccc(F)cc2)c1O (stereo not given)
0.72	4.6	.	1.7	.	18%	-1.9	Cc1cc(C)cc(-n2nnnc2-c2cn(C)nc2C(F)(F)F)c1
0.64	-2.2	-1.6	-2.5	i	.	-25	NC(=O)c1nsc(C(=O)N(CC(=O)NC2CCCC2)c2cccc(C(F)(F)F)c2)c1N
0.69	0.1	2.4	-2.6	i	13%	3.7	CCN(CC)CC#CCC(O)(c1ccccc1)C1CCCCC1 (stereo not given)
.	.	3.2	5.9	i	1%	.	O=C(O)c1cccc2c1C(=O)c1ccc(N3CCN(Cc4ccc5c(c4)OCO5)CC3)cc1S2(=O)=O
0.66	1.5	4.3	2.7	i	17%	4.9	CC1=C(C(=O)Nc2ccccc2C(=O)NCc2ccccc2)SCCO1
0.71	-2.1	2.5	-7.5	i	.	3.2	Cc1cc[n+](-c2nc3ccccc3nc2[N-]S(=O)(=O)c2cccs2)cc1C
0.66	-5.1	3.6	7.5	i	-7%	-0.3	COc1ccc(CN2CCCC(C(=O)Nc3cccc(-n4cccn4)c3)C2)cc1 (stereo not given)
0.64	0.3	.	-1.1	.	-1%	0.5	Cc1ccc(C)c(OCCCCCn2ccnc2)c1
0.73	2.8	-4.1	-2.4	i	11%	-120	Cc1cc2nc(-c3ccc(SCc4ccc(C(=O)O)cc4)nc3)[nH]c2cc1C
0.74	-0.2	1.0	-0.9	i	-2%	0.0	O=C(NCC1CCCO1)C(c1ccc(F)cc1)N(CC1CCCO1)C(=O)c1ccc(-c2ccccc2)[nH]1 (stereo not given)
0.75	4.9	.	0.3	.	.	7.5	CC1(C)CC(=O)C(N=Nc2ccc(Cl)cc2)=C(O)C1
0.66	2.7	1.0	1.6	i	-5%	-0.9	CN(CC(O)COCc1ccc2c(c1)OCO2)C1CCCCC1 (stereo not given)
0.71	0.7	.	2.3	.	-1%&2%	0.7	Nc1nonc1C(=O)NCCNCc1cc(Br)ccc1OCc1ccc(F)cc1
0.72	2.6	8.4	1.6	i	-1%	2.3	N#Cc1nc(-c2ccc([N+](=O)[O-])cc2)oc1N1CCCCC1
.	2.6	0.0	0.1	i	.	.	Cn1nccc1C(=O)NC1CCCc2c1cnn2-c1ccc(F)cc1F (stereo not given)
.	.	-4.2	-1.5	i	.	.	COc1ccc(CCNC(=O)c2ccc(F)c(S(=O)(=O)N3CCCCC3)c2)cc1
0.67	-3.0	.	-3.0	.	7%	0.4	NC(=O)COC(=O)c1cc(S(=O)(=O)N2CCOCC2)ccc1N1CCCCC1
.	2.2	-1.8	1.1	i	6%	.	C/C(=N\NC(=O)Cn1c(-c2ccccn2)nc2ccccc21)c1ccccc1
0.76	25*	.	9.2	.	-4%	-34	Clc1ccc(-c2nc(N3CCCCC3)nc3ccccc23)cc1
0.72	-0.2	-2.0	4.8	i	-1%	0.4	Cc1ccccc1NS(=O)(=O)c1cc2c3c(c1)CC(=O)N3CCC2
0.68	1.5	1.7	1.0	i	-8%	1.0	CC(C)Oc1ccc(S(=O)(=O)N2CCCCC2)cc1NC(=O)CC1OC(=O)c2ccccc21 (stereo not given)
0.64	-1.7	1.1	1.8	i	-18%	0.1	CC(NC(=O)CNC(=O)c1sc2ccccc2c1Cl)c1ccc(S(N)(=O)=O)cc1 (stereo not given)
